KAT2A inh = qHTS Assay for Inhibitors of GCN5L2; Histone acetyltransferase KAT2A (Homo sapiens), Q92830; GCN5L2 HAT assay, ThioGlo1 CoA-SH fluorescence; Potency, µM (highest dose often 58.9 µM), for the others: top-dose activity change, negative = inhibition, usual class: inhibitors; hit rate 0.21% among 390,000; AID 504327, 2011; active = well fitted inhibition curve with a large enough effect
Target sequence (Q92830 whole entry, looked up): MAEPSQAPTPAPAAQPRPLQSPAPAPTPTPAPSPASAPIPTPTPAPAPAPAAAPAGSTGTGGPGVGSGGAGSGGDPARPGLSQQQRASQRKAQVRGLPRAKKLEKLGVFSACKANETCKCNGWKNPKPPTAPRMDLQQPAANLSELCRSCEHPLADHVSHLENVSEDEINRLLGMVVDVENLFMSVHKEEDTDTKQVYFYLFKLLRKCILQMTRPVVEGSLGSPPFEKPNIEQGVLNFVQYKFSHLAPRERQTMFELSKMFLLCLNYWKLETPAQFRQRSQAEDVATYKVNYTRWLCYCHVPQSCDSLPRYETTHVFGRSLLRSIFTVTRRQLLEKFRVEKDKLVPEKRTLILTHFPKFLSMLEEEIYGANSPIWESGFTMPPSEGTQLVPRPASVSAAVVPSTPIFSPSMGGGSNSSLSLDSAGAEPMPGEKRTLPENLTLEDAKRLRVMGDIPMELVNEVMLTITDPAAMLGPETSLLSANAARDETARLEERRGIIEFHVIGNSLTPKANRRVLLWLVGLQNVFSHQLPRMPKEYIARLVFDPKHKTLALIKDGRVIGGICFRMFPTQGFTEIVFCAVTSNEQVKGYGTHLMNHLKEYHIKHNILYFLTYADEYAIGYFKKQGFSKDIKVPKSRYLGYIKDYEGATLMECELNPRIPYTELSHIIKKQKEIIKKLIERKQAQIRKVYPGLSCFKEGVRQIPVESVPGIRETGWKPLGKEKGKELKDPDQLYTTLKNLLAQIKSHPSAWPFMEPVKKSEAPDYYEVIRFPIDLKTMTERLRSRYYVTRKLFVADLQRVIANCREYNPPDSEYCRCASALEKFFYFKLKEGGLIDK
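Titration-based screen in which CoA formation is detected via maleimide probe ThioGlo1 (50uM) turning fluorescent on thiol reaction; substrates H3(1-25) 75uM and acetyl-CoA 70uM, GCN5L2 20nM, 20 min incubation at room temperature.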
The depositor's hits bear a star; & = joins results of further samples; [ ] = dose if it differs, or a comment. % is scaled to controls: 0 for no effect and ±100 for the full control effect; potency is read from the fitted curve at half-maximal effect. Some of the compounds tested, and most or all hits are left out here.

Compound,KAT2A inh
CC(=O)NS(=O)(=O)c1ccc(NC(=O)/C=C/c2ccccc2Cl)cc1,-3%
O=C(OCC(=O)N1CCc2ccccc21)c1c2c(nc3ccccc13)CCCCC2,-5%
Cc1cccc(OCCSc2nc3ccc(NC(=O)COc4ccccc4F)cc3s2)c1,-12%
Cn1c(N)c(S(=O)(=O)c2ccc(Br)cc2)c2nc3ccccc3nc21,-29%
CC(C)[C@H](NC(=O)c1ccccc1)C(=O)OCC(=O)Nc1ncc(Cl)cc1Cl,4%
COc1ccc(N2CCN(Cc3cc(=O)oc4ccc(C)cc34)CC2)cc1,-7%
O=C(NCC1CCCO1)C1CCN(C2CCN(C(=O)C3CCCCC3)CC2)CC1 (stereo unspecified),-2%
CCn1nc(C)c(Br)c1-c1nc(CS(=O)(=O)c2ccc(F)cc2)no1,-9%
CN(C)CCCN(C(=O)c1ccc(N2C(=O)CCC2=O)cc1)c1nc2c(F)cccc2s1,-12%
CCCCNC1c2ccccc2C(=O)N1Cc1ccccc1 (stereo unspecified),-4%
CCOc1ccc(Cc2noc3c2C(=O)CCC3)cc1OCC,-6%
COC(=O)c1c(SC)nc2ccccc2c1OCc1ccccc1Cl,18%
Cc1cc(C)c(C)c(Oc2ncnc(N)c2[N+](=O)[O-])c1,-2%
Fc1cccc(CN2CCN(C(=S)NCCc3ccccc3)CC2)c1,-2%
CCOC(=O)c1c(NC(=O)c2ccc(C)c(C)c2)sc2c1CCCCC2,18%

Quoted from the listing for reference:
Compound,KAT2A inh
CC(=O)NS(=O)(=O)c1ccc(NC(=O)/C=C/c2ccccc2Cl)cc1,-3%
O=C(OCC(=O)N1CCc2ccccc21)c1c2c(nc3ccccc13)CCCCC2,-5%
Cc1cccc(OCCSc2nc3ccc(NC(=O)COc4ccccc4F)cc3s2)c1,-12%
Cn1c(N)c(S(=O)(=O)c2ccc(Br)cc2)c2nc3ccccc3nc21,-29%
CC(C)[C@H](NC(=O)c1ccccc1)C(=O)OCC(=O)Nc1ncc(Cl)cc1Cl,4%
COc1ccc(N2CCN(Cc3cc(=O)oc4ccc(C)cc34)CC2)cc1,-7%
O=C(NCC1CCCO1)C1CCN(C2CCN(C(=O)C3CCCCC3)CC2)CC1 (stereo unspecified),-2%
CCn1nc(C)c(Br)c1-c1nc(CS(=O)(=O)c2ccc(F)cc2)no1,-9%
CN(C)CCCN(C(=O)c1ccc(N2C(=O)CCC2=O)cc1)c1nc2c(F)cccc2s1,-12%
CCCCNC1c2ccccc2C(=O)N1Cc1ccccc1 (stereo unspecified),-4%
CCOc1ccc(Cc2noc3c2C(=O)CCC3)cc1OCC,-6%
COC(=O)c1c(SC)nc2ccccc2c1OCc1ccccc1Cl,18%
Cc1cc(C)c(C)c(Oc2ncnc(N)c2[N+](=O)[O-])c1,-2%
Fc1cccc(CN2CCN(C(=S)NCCc3ccccc3)CC2)c1,-2%
CCOC(=O)c1c(NC(=O)c2ccc(C)c(C)c2)sc2c1CCCCC2,18%

(further entries)
Compound,KAT2A inh
COc1ccc2nc(N(CCN(C)C)C(=O)c3ccc(C(=O)c4ccccc4)cc3)sc2c1,-8%
CCCN1CN=C(NS(=O)(=O)c2ccc(NC(C)=O)cc2)NC1,-5%
CCOc1cccc2sc(N(CCCN(C)C)C(=O)c3ccc(S(=O)(=O)N4CCCCCC4)cc3)nc12,0%
C=CCn1c(SCC(=O)N2CCN(CCO)CC2)nc2sc3c(c2c1=O)CCC3,-20%
COc1ccc(N2CCN(CC(O)COC(c3ccccc3)c3ccccc3)CC2)cc1 (stereo unspecified),-2%
CCOC(=O)Cc1csc(NC(=O)CCCN2C(=O)c3ccccc3C2=O)n1,-6%
Cc1c(C(=O)NNC(=O)Nc2ccc([N+](=O)[O-])cc2)oc2ccccc12,-14%
COCCCNc1nnc(Cc2ccccc2)c2ccccc12,-3%
O=C(CSc1c[nH]c2ccccc12)NC1CCCC1,2%
COc1ccc(NC(=O)Nc2ccc([N+](=O)[O-])cc2)cn1,-11%
CCN(CC)S(=O)(=O)c1cc(C(=O)OCC(=O)NC(=O)c2cccn2C)ccc1C,1%
COc1ccc(C(=O)NCCCNC(=O)c2cnccn2)cc1,1%
COc1cc(C(=O)NCC(=O)NCC(c2ccco2)N2CCCCC2)cc(OC)c1OC (stereo unspecified),-5%
CCOC(=O)c1ccc(NC(=S)NCc2ccco2)cc1,-6%
Cn1c(CCN2CCCCC2)nc2cc(NC(=O)COc3ccccc3)ccc21,-2%
Cc1ccc(S(=O)(=O)N2CCOCC2)cc1NC(=O)COC(=O)c1n[nH]c(=O)c2ccccc12,1%
Cc1ccc(C)c(-n2c(CNC(=O)c3ccco3)nnc2SCC(=O)Nc2nccs2)c1,-3%
O=S(=O)(c1ccc(Cl)nc1)N1CCOCC1,-5%
Cc1ccc(CN2CCN(Cc3cnn(-c4ccc(F)cc4)c3)CC2CCO)o1 (stereo unspecified),0%
COc1ccc(Cl)cc1NC(=O)COC(=O)c1ccc(Br)o1,-9%
CC1=C(C(=O)Nc2cccnc2)C(c2cccnc2)n2nc(-c3cccs3)nc2N1 (stereo unspecified),12%
COc1ccc(-n2cc(CNCCc3nc(C)cc(C)n3)c(-c3ccccc3Cl)n2)cc1,-5%
CCOC(=O)C(C)n1cnc2sc(C)c(C)c2c1=O (stereo unspecified),0%
NC(=O)c1ccccc1OCCOCCOCCOc1ccccc1C(N)=O,4%
Cc1ccc(-c2ccnc3[nH]n(-c4ccccc4)c(=O)c23)cc1,-9%
COc1ccc(C2(CNC(C)=O)CCCC2)cc1OC,-5%
O=C(COC(=O)/C=C/c1ccc(Cl)cc1Cl)NCC1CCCO1 (stereo unspecified),0%
CN(C)CCCN(C(=O)C1=COCCO1)c1nc2ccc(Br)cc2s1,-5%
CCOc1ccc2c(C)nc(NC3=NC(C)(C)C=C(C)N3)nc2c1,-3%
Cc1cccc(NC(=O)CSc2nc(C)c(Cc3ccccc3)c(=O)[nH]2)c1C,-3%&1%

Other results follow:
SMILES	KAT2A inh
CC(NC(=O)c1ccc(F)cc1)c1nc2ccccc2n1Cc1ccccc1F (stereo unspecified)	-1%
COC(=O)Cc1c(O)ccn(Cc2cccc3ccccc23)c1=O	-5%
CC1(C(=O)N/N=C/c2cc3c(cc2Br)OCO3)CC1(Br)Br (stereo unspecified)	-7%
O=C(c1n[nH]c2c1CCC2)N1CCCC(Nc2cccc(F)c2)C1 (stereo unspecified)	-4%
CC(NS(C)(=O)=O)C(c1cccs1)N1CCN(c2ccc(F)cc2)CC1 (stereo unspecified)	-2%
Cc1ccc2cn[nH]c2c1NC(=S)NC(=O)c1ccccc1	-13%
C/C(CCC1CC(C)OC1=O)=N\NC(N)=O (stereo unspecified)	-4%
CCOc1ccccc1CNC(=O)c1ccc(NC(=O)C2=C(C)OCCS2)cc1	-19%
CCOCC(=O)Nc1c(C(=O)Nc2ccc3c(c2)OCO3)oc2ccccc12	-11%
O=C(COC(=O)c1ccco1)NCc1ccc(Cl)cc1	-5%
Cc1ccc(-c2cc(-c3nnc(SCC(=O)NC(C)C(C)C)n3N)c3ccccc3n2)cc1 (stereo unspecified)	46%[activator]
Cc1sc(NC(=O)COc2ccccc2)c(C#N)c1-c1ccccc1	2%
COc1ccccc1-c1nnc(C2CCN(C(=O)c3ccc(Cl)cc3)CC2)o1	0%
COc1cccc(CN(C)C(=S)Nc2ccc(C)c(C)c2)c1	-2%
Cn1c(Cc2cccs2)nnc1SCC(=O)Nc1ccccc1F	-18%
CCO[C@@H]1OC(C(=O)N2CCN(Cc3ccccc3)CC2)=C[C@H](c2cn(C(C)=O)c3ccccc23)[C@H]1CCCO	-6%
O=C(COC(=O)c1ccc(S(=O)(=O)N2CCCC2)cc1)Nc1ccc(F)cc1F	-3%
CC1CC(C)CN(CCCNC(=O)Cc2c(C(=O)O)[nH]c3ccccc23)C1 (stereo unspecified)	-1%
CC(C)(C)c1ccc(C(=O)NCCCNC(=O)c2cccnc2)cc1	-4%
CN(Cc1ccccc1)S(=O)(=O)c1ccc(N2CCOCC2)nc1	-5%
Cc1ccc(CCNS(=O)(=O)c2cnc[nH]2)cc1	0%
Cc1cccnc1NC(=O)c1ccc2c(c1)NC(=O)C(C)S2 (stereo unspecified)	0%
CCOC(=O)CCC(NC(=O)CCCCCCCC(=O)NC(CCC(=O)OCC)C(=O)OCC)C(=O)OCC (stereo unspecified)	-3%
CC(C)(C)NC(=O)CSc1nnc(Cc2ccccc2)n1CC1CCCO1 (stereo unspecified)	-6%
CC(=O)N=C1SC2CS(=O)(=O)CC2N1Cc1ccc(C)cc1 (stereo unspecified)	2%
CCOC(=O)NC(=O)c1cn(N(C)c2ncc(C(F)(F)F)cc2Cl)c(=O)[nH]c1=O	-4%
COC(=O)c1ccc(C(=O)Nc2ccc(-c3nc4cc(NC(=O)c5ccc(C(=O)OC)cc5)ccc4o3)cc2)cc1	0%
CSc1nn2c(C)c(C)c(C)nc2c1C#N	-3%
Cc1ccccc1/C(N)=N/OC(=O)c1cccs1	1%
Cc1nc([N+](=O)[O-])cn1CC(=O)NCCCO	-3%
CC1(C)CC(=O)/C(=N/Nc2ccc(Cl)cc2)CO1	-2%
O=C(Nc1ncn[nH]1)c1ccc(Cl)c(S(=O)(=O)N2CCCCCC2)c1	2%
CCN(C1CCS(=O)(=O)C1)S(=O)(=O)c1cccs1 (stereo unspecified)	14%
CN(c1ccccc1)S(=O)(=O)c1cccc(NC(=O)c2ccc(=O)[nH]n2)c1	1%
CN1CCCN(CC(O)COCc2cccs2)CC1 (stereo unspecified)	1%
Cc1cccn2c(=O)c3cc(C(=O)NC4CCCC4)c(=N)n(C4CCCC4)c3nc12	-17%
CCOC(CNC(=O)C(=O)Nc1cc2c3c(c1)CCN3C(=O)CC2)OCC	-22%
CN(C)C(=O)CSc1nc2ccccc2n1CC(=O)N1CCN(c2ccccc2)CC1	29%
Cc1ccc(C2=NCCn3c2c2ccccc2[n+]3[O-])cc1	2%
NCCCC[C@H]1CNC(=O)C(=O)N1CCc1cccc(F)c1	-13%
CC1CCN(C(=O)Cn2nnc(-c3ccccc3)n2)CC1	-2%
CCCCC1=CC2=C(c3ccco3)C(=O)C(C)(OC(=O)c3ccc(OC)cc3)C(=O)C2=CN1C(CO)CO (stereo unspecified)	-16%
CCOc1ccc(NC(=O)Nc2cc(C)ccc2OC)cc1	-2%
Cc1cccc(N2CCN(Cc3nc(C4CC4)no3)CC2)n1	1%
COc1ccc(CCNc2ccc(S(=O)(=O)N3CCN(C)CC3)cc2[N+](=O)[O-])cc1	-6%
CCOc1ccccc1N(CC(=O)Nc1ccccc1C(=O)N1CCCC1)S(C)(=O)=O	3%
O=C(NCC1CCCO1)c1ccc(-c2cccc(C(F)(F)F)c2)o1 (stereo unspecified)	-21%
COC(=O)c1c(C)[nH]c(C(=O)OCC(=O)N(CC(C)C)c2c(N)n(Cc3ccccc3)c(=O)[nH]c2=O)c1C	-6%
Cc1cc(OCCCCCNCCO)cc(C)c1Cl	2%
S=C(NCCCc1ccccc1)Nc1ccc(Br)cc1	-3%

New compounds follow:
SMILES	KAT2A inh
OCC1(Cc2ccc(Cl)cc2)CCN(Cc2ccc3nsnc3c2)CC1	-2%
CC(C)(C)OC(=O)[C@H](Cc1ccccc1)NC(=O)c1nc[nH]c1C(=O)N1CCNCC1	0%
Cc1ccc(CSC2=Nc3ccccc3C3=NC(=O)CN23)cc1	-14%
COc1cc(NC(=O)C2CCN(S(=O)(=O)c3ccc(Cl)cc3)CC2)ccc1-n1cnnn1	2%
CC(C)CCc1c(O)nc(SCC(C)C)[nH]c1=O	18%
CCCN(C(=O)COC(=O)CSc1ccc(C(N)=O)cc1[N+](=O)[O-])C1CCS(=O)(=O)C1 (stereo unspecified)	-11%
Cc1ccc(C(=O)NC(c2ccccc2)C(Cl)Cl)cc1 (stereo unspecified)	-4%
O=C(Nc1ccc2cn[nH]c2c1)c1ccc(Cl)c(S(=O)(=O)N2CCOCC2)c1	-5%
COc1ccc(C(=O)n2nc(-c3ccc(Cl)cc3)nc2N)cc1OC	-4%
Cc1ccc(OCCCCn2ccnc2)c([N+](=O)[O-])c1	-18%
CC(C)NS(=O)(=O)c1ccc(NC(=O)Cc2cccs2)cc1	-1%
COc1ccc(CCNC(=O)c2ccc(CN3CCC(Cc4ccccc4)CC3)cc2)cc1OC	0%
O=C(c1ccc(S(=O)(=O)c2ccccc2Cl)c([N+](=O)[O-])c1)N1CCN(Cc2ccccc2)CC1	-4%
CC(C)(C)OC(=O)C[C@@H]1C/C=C\C[C@@H](CC(=O)N[C@H](CO)Cc2ccccc2)C(=O)N2CCC[C@@H]2COC1=O	-5%
CC(C)C(NS(=O)(=O)c1ccc2c(c1)oc(=O)n2C)C(=O)N1CCN(Cc2ccccc2)CC1 (stereo unspecified)	-8%
Nc1ncnc2c1ncn2[C@@H]1O[C@H](CNCc2ccc(-n3cccn3)cc2)[C@@H](O)[C@H]1O	-4%
CCOc1ccccc1NC(=O)NCc1ccccc1F	-8%
COc1ccc(N2CCN(C(=O)C3CCN(Cc4nc(-c5ccc(Cl)cc5)oc4C)CC3)CC2)cc1	2%
COc1cccc(C(=O)NCCn2ccc3ccccc32)c1	0%
O=C(O)CCCC(=O)Nc1ccccc1C(=O)N1CCOCC1	-3%
CCOc1ccc(-c2cc(C(=O)NN)[nH]n2)cc1	-2%
COc1ccc(NC(=O)c2ccc(CN3CCN(c4ccccc4)CC3)cc2)cc1	-4%
Cc1cc(=O)[nH]c2cc(Cl)ccc12	0%
COc1ccccc1/C=C1\SC(=S)N(CCC(=O)N2CCN(C)CC2)C1=O	-2%

Part of the list above in order of SMILES length, ascending:
SMILES	KAT2A inh
CC(C)NS(=O)(=O)c1ccc(NC(=O)Cc2cccs2)cc1	-1%
COc1ccc(N2CCN(C(=O)C3CCN(Cc4nc(-c5ccc(Cl)cc5)oc4C)CC3)CC2)cc1	2%
CC(C)(C)OC(=O)C[C@@H]1C/C=C\C[C@@H](CC(=O)N[C@H](CO)Cc2ccccc2)C(=O)N2CCC[C@@H]2COC1=O	-5%
